Source: PubChem BioAssay (ICCB-Longwood Screening Facility, Harvard Medical School)
AID504770: growth inhibitors of E. coli YBA685 in a screen for V. cholerae RctB (chromosome II replication) inhibitors; AID 504770; 0.27% of 130,000 active; E. coli YBA685 rctB-dependent plasmid, OD600 growth, 3 h; hits give low values; z-score (concentration not given with the values);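 active = z-score under -2 on both plates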;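 note: wells of about 30 µL received 100 nL stock; score is relative to mean and SD of the test wells; the first replicate is given; strong numbers were not always called active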
Ba CapD inh: CapD enzyme inhibition | purified CapD enzyme, fluorescence intensity read-out; hits give low values; some hits fall short of the stated cut | z-score (no concentration beside the values) | 0.23% of 140,000 active;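 active = z-score under -4 in either of two replicates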;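 note: stock transfer was 100 nL into about 40 µL; score is relative to mean and spread of the plate; one replicate is shown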
Starred values were filed as active, the others as inactive; . = not tested or not shown. This is a subset. The share of hits here may be higher or lower than overall.

SMILES	AID504770	Ba CapD inh
COc1ccc(CCNC(=O)c2cc3n(n2)C(C(F)(F)F)CC(C2CC2)N3)cc1OC (stereo not drawn)	1.6	.
CC1=Nc2ccccc2NC(C)(C)C1	0.25	-1.7
CSc1nc(SC)c(C#N)c(-c2ccco2)n1	0.05	-0.24
C=CCSc1nnnn1-c1ccc(O)cc1	.	0.17
O=C(Nc1ccc(C(F)(F)F)cc1)C(F)(F)Oc1cccc(C(F)(F)F)c1	.	-0.23
N#CCC(=O)c1ccc(F)cc1	-0.3	.
Cc1nc2ccccc2n1C(=O)N(C)C	-0.2	.
CN(/N=C/c1ccccc1)c1ncc(C(F)(F)F)cc1Cl	.	0.065
CCCOc1cccc(C(=O)Nc2ccc(OC(=O)c3cccc(OCCC)c3)c(-c3nc4ccccc4o3)c2)c1	.	0.33
C/C(=N/O)C1CCCCCCCCCCC1	0.35	-0.41
CC1=C(C(=O)Nc2ccc(Br)cn2)C(c2ccccc2Cl)C2=C(CCCC2=O)N1 (stereo not drawn)	.	27
O=C(N1CC23C=CC(CC2CC12CCCCC2)O3)C(F)(F)F (stereo not drawn)	-1	-0.33
CC1CCCCN1C(=O)CNC(=O)Cc1ccc(Cl)cc1 (stereo not drawn)	0.4	0.34
COc1ccccc1C(=O)OCc1ccc(F)cc1	-0.95	-0.035
CCOc1cc(C(=O)Nc2c3c(nn2-c2ccc(F)cc2)CS(=O)(=O)C3)cc(OCC)c1OCC	.	0.19
O=C(OC/C=C/COCc1ccccc1)N1CCN(c2ccccc2Cl)CC1	.	0.32
COc1cc(C2Nc3cc(C)c(C)cc3NC3=C2C(=O)CC(C)(C)C3)c(Br)c(OC)c1OC (stereo not drawn)	.	-0.065
O=C(O)CC1(CC(=O)NCc2ccccc2)CCCCC1	-0.15	-0.43
NC(=O)c1ccc(C(N)=O)cc1	-1	-0.055
Cc1oc2cc(OC(=O)C(C)NC(=O)OCc3ccccc3)ccc2c(=O)c1Oc1ccccc1 (stereo not drawn)	0.3	36
O=c1c(NCCCN2CCOCC2)c(Br)cnn1-c1ccccc1	-0.35	-0.52
C=CCn1c2ccccc2c2ccccc21	0.4	.
c1csc(Cn2cccc2)c1	-0.25	0.71
CCn1nnnc1SCC(=O)c1ccc(OC)cc1OC	-0.65	.
CC1OC(Nc2ccc(OC(F)(F)F)cc2)C(O)C(O)C1O (stereo not drawn)	-0.3	.

Copied from the listing for reference:
SMILES	AID504770	Ba CapD inh
COc1ccc(CCNC(=O)c2cc3n(n2)C(C(F)(F)F)CC(C2CC2)N3)cc1OC (stereo not drawn)	1.6	.
CC1=Nc2ccccc2NC(C)(C)C1	0.25	-1.7

The main list resumes; the six compounds before the break are reprinted first.
SMILES	AID504770	Ba CapD inh
Cc1oc2cc(OC(=O)C(C)NC(=O)OCc3ccccc3)ccc2c(=O)c1Oc1ccccc1 (stereo not drawn)	0.3	36
O=c1c(NCCCN2CCOCC2)c(Br)cnn1-c1ccccc1	-0.35	-0.52
C=CCn1c2ccccc2c2ccccc21	0.4	.
c1csc(Cn2cccc2)c1	-0.25	0.71
CCn1nnnc1SCC(=O)c1ccc(OC)cc1OC	-0.65	.
CC1OC(Nc2ccc(OC(F)(F)F)cc2)C(O)C(O)C1O (stereo not drawn)	-0.3	.
COc1ccc(NC(=O)CSc2nc3ccc([N+](=O)[O-])cc3[nH]2)c(OC)c1	.	-0.39
CN1CCN(S(=O)(=O)c2ccc(Sc3nnc(-c4cccs4)n3-c3ccccc3)nc2)CC1	-0.2	.
CCOC(=O)c1c(CSc2ccccc2)n(C)c2cc(Br)c(OC(C)=O)cc12	.	-0.08
COc1ccc(-c2cnc3nc(SC/C=C/c4ccccc4)nn3c2N)cc1	.	-0.065
N#CCCn1cc(/C=C/C(=O)NCc2ccccc2)c(-c2cc3ccccc3o2)n1	0.2	.
CSc1nc2c(c(=O)n1Cc1ccccc1)C(C)(C)Cc1ccccc1-2	-0.2	3.5
COc1cccc(OC)c1C(=O)NC(=O)Oc1c(F)cccc1F	.	-0.35
CCCCC(=O)N1CC(=O)Nc2ccc(C)cc2C1c1ccccc1 (stereo not drawn)	-0.2	-0.83
O=C(OC1CCOC1=O)c1cccc(S(=O)(=O)N2CCCC2)c1 (stereo not drawn)	-0.75	.
Cc1ccc(N2CCCC2=O)cc1	-0.8	0.045
Cc1ccc(-c2ccnc3nc(-n4cccc4)nn23)o1	-0.65	8.2
Cc1ccc(CN2CCC(CNC(=O)CCn3cccn3)CC2)cc1	0.55	-0.095
COc1cc(C(=O)N(CCC#N)Cc2ccncc2)cc(OC)c1OC	0.8	-0.26
CC1(C)C2CCC1(CS(=O)(=O)N1CCN(c3ccccc3F)CC1)C(=O)C2 (stereo not drawn)	0.45	0.11
CCN1CCC(N(Cc2ccco2)C(=O)Nc2ccccc2C(F)(F)F)CC1	0	0.24
Oc1[nH]c2ccccc2c1C1=NCCC1	-0.65	-2.5
CC(C)Oc1ccc(C2CC(=O)N(C)C2=O)cc1 (stereo not drawn)	-0.5	.
CNc1ccccc1C(=O)OCC(=O)c1ccc(F)cc1	-0.5	.
CCc1c(C)sc(NC(=O)C#Cc2ccccc2)c1C#N	-0.1	0.14
CSc1ccc(C2C(C#N)=C(N)OC(CSc3nc(C)c(C)c(C)c3C#N)=C2C(=O)OC(C)C)cc1 (stereo not drawn)	.	0.61
CCOC(=O)C1=C(C)N=c2s/c(=C\c3cccs3)c(=O)n2C1c1cc(OC)c(OC)cc1Br (stereo not drawn)	.	-0.2
CCCCN=C1NN=C(c2ccc(Cl)cc2)C(C)S1 (stereo not drawn)	0.2	.
Cn1c(SCCN2CCCC2)nnc1-c1ccncc1	-0.55	.
CCOC(=O)c1cn(C)c(C(=O)OCC)c1O	-0.3	-0.14
CCc1ccc(NC(=O)CSc2nc3ccccc3c(=O)n2CCC(=O)NCCc2ccc(OC)c(OC)c2)cc1	.	-0.18

A draw from above in order of molar mass, low to high.
SMILES	AID504770	Ba CapD inh
CCCCC(=O)N1CC(=O)Nc2ccc(C)cc2C1c1ccccc1 (stereo not drawn)	-0.2	-0.83
O=C(OC1CCOC1=O)c1cccc(S(=O)(=O)N2CCCC2)c1 (stereo not drawn)	-0.75	.
Cc1ccc(CN2CCC(CNC(=O)CCn3cccn3)CC2)cc1	0.55	-0.095
N#CCCn1cc(/C=C/C(=O)NCc2ccccc2)c(-c2cc3ccccc3o2)n1	0.2	.

New compounds follow.
SMILES	AID504770	Ba CapD inh
O=C(O)CC1C(=O)NCCN1C/C=C/c1ccccc1 (stereo not drawn)	-1.1	-1
CCC(C(=O)NC1CCCCC1)n1nc(C)c2c(C)n(-c3ccccc3)nc2c1=O (stereo not drawn)	1.3	-0.25
Nc1c(Cl)cncc1Cl	.	-0.43
CCn1c(C(=O)O)c(CC(=O)N(C)c2cccc(C(F)(F)F)c2)c2ccccc21	.	0.21
O=C(CCS(=O)(=O)c1ccccc1)N1CCc2ccccc21	-0.45	.
C1=CCC(/C=N/Nc2nc3ccccc3o2)CC1 (stereo not drawn)	-0.35	.
Cc1ccc(C(=O)CSc2nnc(-c3ccc(C(F)(F)F)cc3)o2)cc1	.	-0.06
C=CCNc1nc2ccccn2c(=O)c1/C=C1\SC(=S)N(Cc2ccc3c(c2)OCO3)C1=O	-0.25	3.1
COc1ccc(/C=N/NC(=O)c2ccccc2OC(F)(F)F)c(OC)c1C	.	0.05
Cc1ccc(/C=N/NC(=S)N2CCOCC2)cc1	0.25	.
CC(=O)Nc1cc(C(=O)NCCN(C)C)ccc1Sc1ccc(Cl)cc1	1.1	-0.43
CCOC(=O)C1=C(C)NC2=C(C(=O)C(C(=O)OCC)C(c3cccc(OC)c3)C2)C1c1ccc(OC)cc1OC (stereo not drawn)	.	7.3
O=C(O)CCC(=O)N1N=C(c2ccc(Cl)cc2)CC1c1cccs1 (stereo not drawn)	.	1.1
Cc1cc(C)cc(NS(=O)(=O)c2ccc3[nH]cc(C(=O)NCc4ccccc4)c(=O)c3c2)c1	1.5	-0.26
CCOC(=O)c1ccccc1NC(=S)N1CC(C)CC(C)C1 (stereo not drawn)	-1.4	-0.51
[N-]=[N+]=NCc1noc(-c2ccccc2)n1	-1.3	0.29
COC(=O)c1nc(Cl)c(Cl)c(Cl)c1Cl	0.3	2.5
CN1CCN(CCCNC(=O)Cn2cccc2C(=O)c2ccccc2)CC1	3.9	-0.83
Cc1cc(C)cc(NC(=O)C2CCN(c3nc(C)cc(C)n3)CC2)c1	0.3	.
Cc1ccc(CN2C(=O)C3CCCN3c3ncccc32)cc1 (stereo not drawn)	1.9	-0.02
c1ccc(-c2csc(NC3=NCCCCC3)n2)cc1	0.2	.
O=S(=O)(c1ccc(F)c(F)c1)N1CCN(C/C=C/c2ccccc2)CC1	-1	-0.24
O=C1C=CC(=O)C(Sc2nnnn2-c2ccccc2)=C1	-0.7	-2
CCOC(=O)C1=CN(Cc2ccc(OC)cc2)C=C(C(=O)OCC)C1c1cccc(OC)c1OC	.	34
CCOc1ccccc1N(C)S(=O)(=O)c1ccc2[nH]cc(C(=O)N3CCc4ccccc4C3)c(=O)c2c1	.	0.67
Next part:
SMILES	AID504770	Ba CapD inh
O=S(=O)(c1cc(S(=O)(=O)C(F)(F)F)c(Cl)c(S(=O)(=O)C(F)(F)F)c1)C(F)(F)F	-0.25	.
Cc1ccc(C(=O)OCC2OC3C(Oc4c(C)c(=O)ncn43)C2OC(=O)c2ccc(C)cc2)cc1 (stereo not drawn)	-0.7	-0.065
CC(C)(Oc1ccc(C#N)cc1)C(=O)O	-0.7	-0.71
COc1cc(OC)nc(CSc2ccc(NS(=O)(=O)c3ccc(C(C)(C)C)cc3)cc2)n1	.	-0.4
COCCOC(=O)C1=C(C)NC2=C(C(=O)CC(c3cccs3)C2)C1c1ccc(C(F)(F)F)cc1 (stereo not drawn)	.	1.9
O=c1[nH]c2ccccc2c2nc(-c3ccc(Cl)cc3)nn12	0.25	7.7
COc1ccc(CN=CC2C(=O)N(c3nc4ccccc4s3)N=C2C(F)(F)F)cc1 (stereo not drawn)	-0.2	-1.7
O=c1c2ccccc2nnn1CSc1nc2ccccc2c(=O)n1CCC1=CCCCC1	1.6	.
Cc1cccc(Nc2nc(N3CCc4ccccc43)ncc2F)c1C	-0.15	2.3
CCN(Cc1ccc(OC)c(F)c1)C(=O)C1CCCO1 (stereo not drawn)	1.3	.
COc1cc2c(cc1OC)[C@@H]1C(=O)c3ccc4c(c3O[C@@H]1CO2)C=CC(C)(C)O4	0.4	.
CCCNC(=O)c1c(O)c2c([nH]c1=O)CCCC2	0.1	0.99
Cc1cc(C)n(C(=O)c2cc(C)[nH]n2)n1	-0.75	-0.06
CN(C)c1ccc(-n2[nH]nnc2=S)cc1	.	-0.07
CSc1nc(N)nc2sc(C(=O)C34CC5CC(CC(C5)C3)C4)c(N)c12	-0.9	-0.72
COc1ccc(C(OC(=O)c2ccccc2)c2nccc3ccccc23)cc1 (stereo not drawn)	1.4	-1.4
CN(C)/C=C1/C(=O)N(c2ccc(Cl)cc2)C(=O)c2ccccc21	0.2	.
CC(OC(=O)c1c(F)cccc1F)C(=O)Nc1cc(Cl)cc(Cl)c1 (stereo not drawn)	-0.65	-0.35
C1CN=C(Nc2nn[nH]n2)C1	-0.65	.
O=C(CSc1ccc(S(=O)(=O)N2CCOCC2)cc1)NC1CCCCC1	-0.35	-0.72
CCO/C=C(\C#N)S(=O)(=O)Cc1ccco1	.	0.48
COc1ccc(Br)cc1S(=O)(=O)NCCCN1CCOCC1	0.8	0.78
Cc1ccc(NC(=O)CCCn2nnc3ccccc3c2=O)nc1	1.1	0.45
Cc1cc(C)cc(N=C2NC(=O)/C(=C/c3ccccc3[N+](=O)[O-])S2)c1	.	-0.78
N#CCCn1cc(/C=C2\NC(=S)N(c3ccccc3)C2=O)c(-c2ccccc2)n1	0.4	.
Next section
SMILES	AID504770	Ba CapD inh
Cc1ccc(N(Cc2ccccc2)C(=O)c2cccnc2)cc1	0.2	.
CC1CN(C(=O)C(C)Oc2ccccc2)CC(C)O1 (stereo not drawn)	-0.1	0.055
CCCCCCn1nc(C(=O)OCC(=O)c2ccc[nH]2)c2ccccc2c1=O	-0.55	.
COc1ccc(N(C(N)=S)C2=NCCCCC2)cc1	-0.75	.
O=S(=O)(Nc1ccccc1)C(F)(F)F	-0.45	.
Cc1c(C)c(C)c(Cc2c(C)c(C)c(C)c(C)c2C)c(C)c1C	.	-0.13
Cc1nc2c(=O)oc3ccccc3c2n1-c1ccccc1	-0.85	-0.92
Cc1cc(C)nc(N2CCCC(C(N)=O)C2)n1 (stereo not drawn)	0	.
CCS(=O)(=O)Nc1ccc(C(=O)NC(C)C)cc1	-0.05	0.23
CCCN1CCN(CCNC(=O)Nc2ccccc2OC)CC1	-0.35	-1.1
CCS(=O)(=O)N1CCC2(CC1)N=C(c1ccc(C(C)(C)C)cc1)C(=O)N2	0.1	-0.89
CC1CCCCN1C(=O)N1CCOCC1 (stereo not drawn)	-0.7	-0.92
O=C(Nc1nc2ccsc2c(=O)s1)C1CCC1	0.45	-0.28
CC(C)n1nc(C(=O)N2CCC(=O)CC2)c2ccccc2c1=O	0.25	.
O=C(Oc1ccc(Cl)cc1Cl)c1ccc(Br)cc1	0.1	-2.8
CCOC(=O)C1=C(O)/C(=C/c2ccc(OC)cc2)SC1=Nc1ccc([N+](=O)[O-])cc1	.	-0.39
Cc1ccc2nc(C(F)(F)F)cc(N3CCN(CCS(=O)(=O)c4ccccc4)CC3)c2c1	0.45	0.29
COc1cc(-n2c(=S)[nH]c3ccc(C)cc3c2=O)c(Cl)cc1Cl	.	-0.15
Brc1ccc(OCCSc2ncccn2)cc1	-0.5	0.58
Cn1cc(C(=O)c2cccc(Cl)c2)cc1/C=N\O	0.05	-0.57
CNC(=O)CSc1nc2ccccc2s1	-0.7	.
O=C(Nc1nnc(SCc2ccccc2)s1)C1CC1	0	-0.77
COc1ccccc1NC(=O)c1sc2ncnc(N3CCCCC3C)c2c1C (stereo not drawn)	.	-0.39
O=C(CC1NCCCNC1=O)Nc1cc(Cl)ccc1Cl (stereo not drawn)	1	0.55
